Assay outcomes from PubChem.
ClpP mod: qHTS Assay for Activators of ClpP; ATP-dependent Clp protease proteolytic subunit (Bacillus subtilis (strain 168)), P80244; purified B. subtilis ClpP, FRET peptide cleavage, 20 min; Potency, µM (doses to about 57.5 µM), inactives show at the highest dose activity change, negative = active; hit rate 1.9% among 340,000; AID 651965, 2013; active = well fitted falling curve with a large enough effect; inconclusive = small, poorly fitted or top-dose-only effect; inactive = no such curve, though single readings can be large or run the other way; further: potency means the concentration at half of the fitted maximal effect; the source files actives as falling curves though it sought activators and does not explain the sign; nearly all actives have a fitted effect of over 65% in size; many hits overshoot -100%
Target sequence (P80244 whole entry, looked up): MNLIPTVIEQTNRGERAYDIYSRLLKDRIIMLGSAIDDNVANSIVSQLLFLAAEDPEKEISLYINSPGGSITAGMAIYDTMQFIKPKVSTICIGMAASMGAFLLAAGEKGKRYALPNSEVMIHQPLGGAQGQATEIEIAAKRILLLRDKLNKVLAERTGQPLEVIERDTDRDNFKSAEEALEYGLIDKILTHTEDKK
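FRET quenching reversal measured ClpP activation: 10 microg/mL B. subtilis ClpP at pH 8 with the FRET-FV decapeptide, read at 430 nm after 320 nm excitation. The 20-min minus 0-min signal was scaled between DMSO/no-enzyme wells and ADEP (5.8 microM final).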
TRPML1 blocker: blocks the human TRPML1 channel. Q9GZU1. TRPML1-inducible cells, Ca2+ dye fluorescence, FDSS; active compounds read low; inhibition of EC80 agonist-evoked calcium signal. activity change, negative = inhibition, % (test concentration not listed). hit rate 0.02% among 390,000; in the data active means activity change below about -50%; inconclusive means about -30% to -50%; inactive means above about -30%;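 further: stimulus is agonist 54-4 at its EC80 concentration; on the % scale 0 is the no-effect control and ±100 the full control effect; compound concentration not given in the record; the text of the record puts the active cut at -80%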
Target sequence (Q9GZU1 whole entry, looked up): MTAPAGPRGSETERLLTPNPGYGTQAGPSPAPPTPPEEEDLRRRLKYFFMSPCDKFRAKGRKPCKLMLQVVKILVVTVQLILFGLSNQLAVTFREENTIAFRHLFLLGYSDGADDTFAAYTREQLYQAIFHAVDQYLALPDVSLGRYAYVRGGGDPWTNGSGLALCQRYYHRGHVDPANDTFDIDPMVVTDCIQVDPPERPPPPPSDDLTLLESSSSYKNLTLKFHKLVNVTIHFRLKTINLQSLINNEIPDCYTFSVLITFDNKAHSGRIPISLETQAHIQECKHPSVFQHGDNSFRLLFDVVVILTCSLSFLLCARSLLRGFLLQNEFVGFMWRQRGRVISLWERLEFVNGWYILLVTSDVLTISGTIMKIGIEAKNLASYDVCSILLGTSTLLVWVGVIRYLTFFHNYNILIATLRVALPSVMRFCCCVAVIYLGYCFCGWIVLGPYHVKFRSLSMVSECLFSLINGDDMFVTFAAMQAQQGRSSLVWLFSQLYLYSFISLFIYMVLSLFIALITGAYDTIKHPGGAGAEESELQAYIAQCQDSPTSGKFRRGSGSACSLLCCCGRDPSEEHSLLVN
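Tet-induced TRPML1-DL cells loaded with Ca8 no-wash calcium dye were read kinetically on FDSS. Compound addition was followed by EC80 agonist 54-4 (4 uM final); inhibition was read over 110 s.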
TRPML1 ag: human mucolipin-1 channel agonism | TRPML1-expressing cells, Ca2+ dye fluorescence, FDSS; host cell line not named in the record; reference of the full effect not given here | activation, % (test concentration not listed) | hit rate 0.12% among 410,000 | AID 624414; in the data active = activation above about 50%; inconclusive = about 30% to 50%; inactive = below about 30%; further: 0% is about no effect; the text of the record puts the active cut at 80%
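TRPML1-DL cells, Tet-induced overnight (~16 h, 37 degrees C), loaded 45-90 min at room temperature with Ca8 no-wash calcium dye plus quencher. FDSS fluorescence: 10 s baseline, compound pin-transfer, 110 s agonist read, then EC80 54-4 (4uM final) and 110 s antagonist read.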
gsp antagonist: antagonizes gsp, the McCune-Albright syndrome mutation. gsp-mutant cells, cAMP HTRF, 30 min; control for the full effect not named in the record. Potency, µM (titrated, usually from 76.9 µM), without a hit: top-dose activity change, negative = inhibition, usual class: inhibitors. hit rate 0.4% among 340,000; active = falling curve of any shape with a large fitted effect; inconclusive = falling curve, mostly with a smaller effect; inactive = flat or rising curve; cell line not stated here;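 further: intracellular cAMP measured with PDE inhibitor Ro 20-1724 present during compound exposure; potency means the concentration at half of the fitted maximal effect; on the % scale 0 is the no-effect control and ±100 the full control effect; nearly all actives have a fitted effect of over 65% in size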
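Cells, 2000/well, grown 16–24 h in DMEM 10% FBS with 0.5 mg/ml G418, then compounds plus […] (300 uM addition stock), 30 min at 37C. cAMP read by HTRF (cAMP-d2 and anti-cAMP antibody-K in lysis buffer) after 30 min RT.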
gsp ag: activates gsp, the McCune-Albright syndrome mutation | gsp mutant cells, cAMP HTRF, 30 min; control for the full effect not named in the record | Potency, µM (top dose mostly 76.9 µM), for the others: top-dose activation (cAMP increase), usual class: activators | hit rate 0.13% among 340,000 | AID 624287; active = well fitted activation curve with a large enough effect; inconclusive = small, poorly fitted or top-dose-only effect, or another doubt; inactive = no such curve, though single readings can be large or run the other way; cell line not stated here;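 further: phosphodiesterase inhibitor Ro 20-1724 added with compounds to block cAMP breakdown; potency means the concentration at half of the fitted maximal effect; nearly all actives have a fitted effect of over 60% in size; about a fifth of the inactives were tested at one dose only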
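Cells in DMEM/10% FBS with G418 were pretreated with compounds in DMSO plus […] (300 uM stock) for 30 min at 37C. cAMP was measured by HTRF (cAMP-d2 plus anti-cAMP antibody-K) after 30 min at room temperature.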
Menin MLL FP FL: menin-MLL binding inhibition, fluorescein peptide | Fluorescence polarization, fluorescein-MLL peptide displacement from menin | FP activity change, % at 61.4 µM | 290,000 tested, under 10 active | AID 1766; inconclusive = falling polarisation curve, or a change in total fluorescence; inactive = total fluorescence flat and polarisation flat or rising; no compound was filed as active; the % refers to the polarisation; negative = inhibition;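 further: % of control where 0% means no effect; inhibitors lower the polarisation; unlabelled MLL peptide was the positive control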
Starred values were filed as active, the others as inactive; ? = inconclusive; nt = not tested or not shown; & = joins results of further samples; [ ] = another dose, or the depositor's remark.

SMILES | ClpP mod | TRPML1 blocker | TRPML1 ag | gsp antagonist | gsp ag | Menin MLL FP FL
Cc1cc(C)n(-c2ccc3cccc(NS(C)(=O)=O)c3n2)n1 | -2.0% | 1 | 3.7 | 16% | 7% | 0.4
CC1CN(CC(O)COc2ccc(C#N)cc2)CCN1CC(O)COc1ccc(C#N)cc1 (configuration not stated) | nt | 4 | 0.0 | 20% | 0%[15.4 µM] | 0.7
COc1cccc(NC(=O)CN(C)C(C)C(=O)NC(=O)NC2CCCCC2)c1 (configuration not stated) | 0.2% | -8 | -0.5 | -3% | -19% | nt
CCOC(=O)C1CCCN(c2c(NCCc3cccc(C)c3)c(=O)c2=O)C1 (configuration not stated) | 0.4% | -19 | -0.7 | -4% | 17% | -0.9
CCN1CCN(Cc2ccc(OC)c(OCc3ccccc3)c2)CC1 | -1.2% | 3 | 0.2 | 12% | -25% | 2.0
COc1cc(CNCc2ccc3c(c2)OCO3)c([N+](=O)[O-])cc1OC | -2.0% | -12 | -0.7 | 11% | -18% | -1.2
CCCCCCCCCOC(=O)C1N2C(=O)[C@@H](NC(=O)COc3ccccc3)[C@H]2SC1(C)C (some centres not stated) | -1.0%&-3.0% | 13 | 0.8&1.5 | 1% | -9% | nt
COc1cc(CNC(=O)c2sc3ncccc3c2-n2cccc2)cc(OC)c1OC | -10% | -21 | 0.4 | nt | nt | nt
CCOC(=O)CNS(=O)(=O)c1cc(-c2nn(C)c(=O)c3ccccc23)ccc1C | 2.0% | 27 | -0.4 | -9% | 13%[15.4 µM] | 6.7
Cc1ccc(CNC(=O)CSc2nc3ccsc3c(=O)n2-c2ccc(Br)cc2)cc1 | -2.3% | 10 | 2.4 | nt | nt | nt
O=C(NC1CCCCC1)c1cc(-c2ccc(Cl)cc2)on1 | nt | -5 | 0.6 | 1% | 12%[15.4 µM] | 4.3
COc1ccc2c(c1)-c1nc(/N=C/c3ccc(O)cc3)sc1CC2 | -9.7% | 18 | 0.0 | 0% | -62% | 0.4
CC1=C(C(N)=O)C(c2cccc(OCc3ccccc3)c2)n2nnnc2N1 (configuration not stated) | -3.5% | 7 | 0.0 | 3% | 0% | 2.2
O=C(NCc1cccs1)C1CCCN1C(=O)Nc1ccccc1 (configuration not stated) | -0.9% | 0 | 0.7 | 1% | 12% | -3.2
CCc1nnc(NC(=O)CN2CCN(Cc3ccccc3Cl)CC2)s1 | nt | 0 | 0.5 | 6% | -13% | -5.9
CCCCn1c(N)c(N(CC(C)C)C(=O)CSCc2ccc(Cl)c(Cl)c2)c(=O)[nH]c1=O | nt | 21 | 1.8 | -5% | -25%[15.4 µM] | nt
Cc1cc(C(C)(C)C)oc1C(=O)O | 0.0% | -9 | 0.6 | 0% | -17% | ?
Cc1c(-c2ccccc2)cnc2c(C)cccc12 | 0.6% | 2 | 0.9 | -13% | -7% | nt
Cc1ccc(CNC(=O)CNS(=O)(=O)c2ccc3c(c2)C(C)(C)C(=O)N3C)cc1 | 3.5% | 29 | 0.1 | -2% | -10% | -4.9
CCC(C)[C@H](NC(=O)OC(C)(C)C)C(=O)N/N=C/C1=Cc2ccccc2OC1 (some centres not stated) | ? | 14 | -0.6 | -2% | -1% | 1.1
O=C(CSc1ncnc2nc[nH]c12)c1ccc(Cl)cc1 | -2.1% | -12 | -0.6 | -14% | 18% | -3.7
COC(=O)CSc1nc2ccccn2c(=O)c1C=O | nt | -14 | -0.5 | -4% | ? | 0.5
Cc1ccc(CN2CCNC(=O)C2CC(=O)NCCCn2cccn2)o1 (configuration not stated) | nt | -8 | 0.6 | 10% | 10% | -2.3
CCCNC(=O)Nc1ccc(NC(C)=O)cc1 | -2.7% | 14 | -0.3 | 80%[activator] | -24% | -0.5
CC(C)(C)OC(=O)CC12CCCCC1NC(=O)O2 (configuration not stated) | 0.0% | -17 | -0.6 | 11% | -14% | 4.7

Next section, starting with the last 7 of the part before.
SMILES | ClpP mod | TRPML1 blocker | TRPML1 ag | gsp antagonist | gsp ag | Menin MLL FP FL
Cc1ccc(CNC(=O)CNS(=O)(=O)c2ccc3c(c2)C(C)(C)C(=O)N3C)cc1 | 3.5% | 29 | 0.1 | -2% | -10% | -4.9
CCC(C)[C@H](NC(=O)OC(C)(C)C)C(=O)N/N=C/C1=Cc2ccccc2OC1 (some centres not stated) | ? | 14 | -0.6 | -2% | -1% | 1.1
O=C(CSc1ncnc2nc[nH]c12)c1ccc(Cl)cc1 | -2.1% | -12 | -0.6 | -14% | 18% | -3.7
COC(=O)CSc1nc2ccccn2c(=O)c1C=O | nt | -14 | -0.5 | -4% | ? | 0.5
Cc1ccc(CN2CCNC(=O)C2CC(=O)NCCCn2cccn2)o1 (configuration not stated) | nt | -8 | 0.6 | 10% | 10% | -2.3
CCCNC(=O)Nc1ccc(NC(C)=O)cc1 | -2.7% | 14 | -0.3 | 80%[activator] | -24% | -0.5
CC(C)(C)OC(=O)CC12CCCCC1NC(=O)O2 (configuration not stated) | 0.0% | -17 | -0.6 | 11% | -14% | 4.7
O=C1C2CCCN2C(=O)N1CCN1CCN(c2cccc(C(F)(F)F)c2)CC1 (configuration not stated) | nt | -9 | 0.5 | 2% | 8% | nt
CCN(Cc1ccccc1)Cc1nc(CCc2ccccc2)no1 | 2.2% | 8 | 1.7 | 7% | -17% | 2.7
COc1ccc(CCNC(=O)CCn2c(=O)c3ccccc3n(Cc3ccccc3C)c2=O)cc1OC | 0.5% | 1 | 2.2 | nt | nt | nt
COc1ccc(OCCNC(=O)C(Cc2c[nH]c3ccccc23)NC(C)=O)cc1 (configuration not stated) | -0.3% | 32 | 0.2 | 4% | 10µM* | -0.2
COc1ccc(NC(=O)C2CCCN(S(=O)(=O)c3cccnc3)C2)c(OC)c1 (configuration not stated) | 0.7% | 18 | 1.8 | 0% | -48%[inhibitor] | -0.7
C=CCSc1nnc(-c2ccncc2)n1-c1ccc(OCC)cc1 | 0.3% | 5 | 1.1 | 0% | -33%[inhibitor] | 1.1
O=C(Nc1cccc(F)c1)C1CCN(C(=O)N2CCOc3ccccc32)CC1 | 1.2% | 2 | 0.4 | -5% | 3% | -12
CCOC(=O)c1c(NC(=O)CSc2nc3c(c(=O)n(C)c(=O)n3C)n2CC)sc(C)c1C | 1.2% | 37 | 0.5 | 4% | -5% | -0.4
Cc1cc2c(c(C)c1Cl)C(c1ccc3c(c1)OCO3)CC(=O)O2 (configuration not stated) | -1.7% | 26 | 0.9 | -14% | nt | 4.6[94.6 µM]
Cc1nn(CC(=O)N2CCc3ccccc3C2)c(C)c1[N+](=O)[O-] | nt | -13 | 0.6 | 0% | ? | 3.1
COc1ccc(Cl)cc1NC(=O)C(C)OC(=O)C1=NNC(=O)CC1 (configuration not stated) | -2.0% | -6 | 0.0 | -3% | 29% | nt
CN(C(=O)CSc1nncn1-c1ccccc1)C1CCS(=O)(=O)C1 (configuration not stated) | nt | 0 | 0.6 | -1% | 3%[15.4 µM] | nt
CCN(C/C=C/c1ccccc1OC)Cc1ccccc1 | nt | -10 | -0.6 | 2% | -18% | -2.8
C#CC1(NC(=O)N(C)C)CCCCC1 | -3.7% | 0 | 1.2 | 3% | -52%[inhibitor] | -1.3
Cc1cccc(C)c1NC(=O)C(NS(=O)(=O)c1cccs1)c1ccccc1 (configuration not stated) | -2.6%&-3.6% | 9&-5 | 1.2&0.4 | 5% | -8% | -1.8
CCOP(=O)(OCC)C(NC(=O)c1ccc(OC)c(OC)c1)c1ccccc1 (configuration not stated) | nt | -13 | -0.3 | 9% | 10% | 2.2
CCN(C(=O)c1ccc(S(=O)(=O)N(C)C)cc1)C(C)C(=O)Nc1ccc(C)cc1 (configuration not stated) | 0.7% | 0 | -1.4 | -27% | -21%[15.4 µM] | -15
O=C(O)C1CC=CCC1C(=O)NCCc1cccc(Cl)c1 (configuration not stated) | 0.3% | 3 | 0.4 | -3% | 4% | 1.1
COC(=O)CN1C(=O)CSc2ccc(S(=O)(=O)Nc3cc(C)ccc3C)cc21 | -0.1% | -23 | -0.7 | nt | nt | nt
COc1ccc(CNC(=O)c2cnn(-c3ccccc3)c2-n2cccc2)cc1OC | 2.6% | -22 | -0.8 | nt | nt | nt
COCC(C)NC(=O)c1cc(S(=O)(=O)N2CCCCC2)ccc1N1CCOCC1 (configuration not stated) | -4.3% | -2 | 0.0 | 10% | -16% | nt
CCOc1ccc(NC(=O)C(=S)NC2CCCCC2)cc1 | nt | 1 | 1.3 | -5% | 15%[15.4 µM] | 4.7
CC1CCc2sc(C(=O)N/N=C/c3ccc(O)cc3)cc2C1 (configuration not stated) | -5.7% | nt | nt | -3% | -45%[inhibitor] | 7.9
COc1ccc(OC)c(C(=O)CCCCC(=O)c2cc(OC)ccc2OC)c1 | 0.1% | -1 | 0.8 | nt | -24% | nt
Cc1ccc(Cl)cc1N1CCN(C(=O)c2cnn(-c3ccc(Cl)cc3)c2C2CCNCC2)CC1 | -1.3% | 12 | -0.4 | nt | nt | nt

Next section.
SMILES | ClpP mod | TRPML1 blocker | TRPML1 ag | gsp antagonist | gsp ag | Menin MLL FP FL
Cc1ccc(F)c(C2C3C=CCC(c4cccc(-c5ccc(N(C)C)cc5)c4)C3C(=O)N2Cc2ccccc2)c1 (configuration not stated) | ? | 2 | 0.0 | 5% | nt | 2.3
Cn1c(=O)c(=O)n(C)c2cc(S(=O)(=O)N3CCC(Cc4ccccc4)CC3)ccc21 | -3.2% | -4 | -0.3 | -2% | 4% | 7.8
COc1ccc(-c2nc(SCC(=O)Nc3cccc(C(C)=O)c3)n[nH]2)cc1 | 1.1% | 2 | 2.6 | nt | nt | nt
C=CCN(Cc1nc(-c2ccccc2)no1)C(=O)c1ccc2c(c1)OCO2 | nt | -10 | 0.5 | 1% | -3% | 4.9
Fc1cccc(-c2nn[nH]n2)c1 | -0.2% | 0 | -0.6 | -5% | -13% | 2.5
COc1cccc(COC(=O)C2CC(=O)N(Cc3ccc(C)cc3)C2)c1OC (configuration not stated) | -0.9% | -6 | -0.5 | -13% | -35%[inhibitor] | nt
COc1ccccc1Nc1nc(N)nc(CN2CCN(Cc3ccccc3)CC2)n1 | -1.7% | -10 | -0.9 | 13% | ? | 1.6
CCOc1ccc(NC(=O)CSc2nnc(Cc3cccn3C)n2-c2ccc(OC)cc2)cc1 | -0.9% | 2 | 2.6 | -8% | -3% | 8.5
O=C(CCN1C(=O)C2C3C=CC(C3)C2C1=O)N1CCN(c2ccccc2Cl)CC1 (configuration not stated) | -6.3% | 5 | -0.4 | -19% | -5% | -4.9
